From PubChem
H5N1 CPE: antiviral screen in MDCK cells, H5N1 avian flu. cytopathic effect, luminescence, 72 h; hits give high values; no value below 0 was filed and about half of the inactive calls have no number; reference of the scale not given here. inhibition, % at 50 µM. 0.07% of 96,000 active; in the data active = inhibition above about 25%
The depositor's hits bear a star; i = inactive. The list is partial. The share of hits here may be higher or lower than overall.

SMILES	H5N1 CPE
CCOc1ccccc1C1C(C#N)=C(N)Oc2cc(C)n(C)c(=O)c21 (stereo unspecified)	i
Cc1csc(NC(=O)CSc2nnc(-c3ccoc3C)o2)n1	0.2
COC(=O)c1cccc(NC(=O)C2COc3ccccc3O2)c1 (stereo unspecified)	0.6
COc1ccc(-n2c(Cc3cccn3C)nnc2SCC(=O)Nc2cccc(NC(C)=O)c2)cc1	0.5
NC(=O)C(c1ccc(Sc2ccccc2)nn1)c1ccc(Cl)cc1Cl (stereo unspecified)	i
Cc1cc(Br)ccc1OCC(=O)N(Cc1nc(-c2ccccc2)no1)C(C)C	0.5
CC(Cc1ccccc1)N/C=C1\CC(=O)NC1=O (stereo unspecified)	i
Cc1ccc(S(=O)(=O)Cn2nnnc2C(C(C)C)N2CCSCC2)cc1 (stereo unspecified)	0.1
CCN1C(=O)/C(=C\c2ccco2)C(C(=O)OC)=C1C	1.2
CS(=O)(=O)c1sc2nc(-c3cccs3)cc(-c3ccccc3)c2c1N	i
CCCSC(=S)NC1CCS(=O)(=O)C1 (stereo unspecified)	i
CCC1CCCCN1CC(=O)Nc1cc(C)nn1-c1nc(C)cc(C)n1 (stereo unspecified)	i
Cc1ccc(OC(=O)c2oc3ccc(F)cc3c2C)c(C)c1	0.1
CC(C)(C)c1csc(N(CCC#N)CCC#N)n1	0.4
C/C(=C\c1ccccc1)C(=O)Nc1cc(C)on1	i
CCC(C)NC(=O)CC1Oc2ccc(Cl)cc2NC1=O (stereo unspecified)	i
O=C(NCc1cccnc1)c1ccc(S(=O)(=O)N2CCOCC2)cc1	0.6
O=C(c1cccc(S(=O)(=O)N2CCCC2)c1)c1cccc(S(=O)(=O)N2CCCC2)c1	1.5
COc1ccc(C(=O)N2CCN(Cc3cc(OC)c(O)c(OC)c3)CC2)cc1OC	i
O=C(NNc1cccc(Cl)n1)Nc1ccc(Cl)cc1	i

Next section; it opens with the 7 that closed the last part.
SMILES	H5N1 CPE
CC(C)(C)c1csc(N(CCC#N)CCC#N)n1	0.4
C/C(=C\c1ccccc1)C(=O)Nc1cc(C)on1	i
CCC(C)NC(=O)CC1Oc2ccc(Cl)cc2NC1=O (stereo unspecified)	i
O=C(NCc1cccnc1)c1ccc(S(=O)(=O)N2CCOCC2)cc1	0.6
O=C(c1cccc(S(=O)(=O)N2CCCC2)c1)c1cccc(S(=O)(=O)N2CCCC2)c1	1.5
COc1ccc(C(=O)N2CCN(Cc3cc(OC)c(O)c(OC)c3)CC2)cc1OC	i
O=C(NNc1cccc(Cl)n1)Nc1ccc(Cl)cc1	i
CCOc1ccc2nc(SCC(=O)Nc3ncccn3)[nH]c2c1	0.2
O=C(Nc1ccc(Oc2ccccc2)cc1)c1cnc2n(c1=O)CCS2	i
COc1ccccc1N1CCN(C(CNC(=O)C2CCCCC2)c2cccnc2)CC1 (stereo unspecified)	0.1
O=C(NCCN1CCOCC1)C1CCC(=O)N1C1CCCCC1 (stereo unspecified)	1.0
CCC(C)c1ccc(O)c(NC(=O)c2cncc(Br)c2)c1 (stereo unspecified)	0.8
Cn1c(=O)c2c(nc(CN3CCN(Cc4ccccc4)CC3)n2Cc2ccccc2)n(C)c1=O	1.4
Cn1c(=O)c(C(=O)NCCO)c(O)c2ccccc21	1.0
CC1(C)OC(=O)N(CCc2ccccc2)C1(C)O (stereo unspecified)	0.2
COc1ccc(C(=O)N(c2ccccc2)C2C=CS(=O)(=O)C2)cc1 (stereo unspecified)	i
Cc1ccc(NC(=S)c2nc3ccccc3s2)cc1	0.4
Cc1ccc(CCP(=O)(O)CN2CCOCC2)cn1	0.5
COC(=O)C1(C(F)(F)F)N=C2Sc3ccccc3N2C(N2CCOCC2)=N1 (stereo unspecified)	2.1
CCOc1ccc(N=C2NC(=O)S/C2=C\c2ccc(Cl)cc2)cc1	i
C=C(C)c1cccc(C(C)(C)NC(=O)Nc2cc(C)ccc2OC)c1	1.4
COc1ccc(S(=O)(=O)N2CCCCC2)cc1	0.5
O=C(Oc1ccc2ccc(=O)oc2c1)N1CCOCC1	0.6
Cc1cc(C)nc(SCC(=O)c2ccc(O)cc2O)n1	i
CCOC(=O)c1cc(OC(=O)c2ccccc2OC)n(-c2ccccc2)n1	0.6
Cc1ccc(-c2cc(-c3ccccc3)c(C#N)c(N)n2)o1	0.8
CCc1ccc(C(=O)CSC2=C(C#N)C(c3ccco3)C(C(C)=O)=C(C)N2)cc1 (stereo unspecified)	i
CCn1c(O)c(C=NCc2cccs2)c(=O)n(CC)c1=S	0.9
O=C(NCc1n[nH]c(=S)n1-c1cccc(Cl)c1)c1ccc(S(=O)(=O)N2CCCC2)cc1	0.6
CN(C)CCSc1nnc2sc3ccccc3n12	8.4
CCCCn1c(SCC(=O)c2ccc(OC)c(OC)c2)nc2cc(S(N)(=O)=O)ccc21	0.7
NC(=O)c1oc2ccccc2c1NC(=O)c1ccc(F)cc1	1.6
COc1cccc(-c2noc(C3CCCN(S(=O)(=O)c4cccc(Cl)c4C)C3)n2)c1 (stereo unspecified)	0.1
COc1ccc(C(=O)Nc2sc(C)c(-c3ccccc3)c2C#N)cc1OC	i
Cc1ccc2c(Cl)c(C(=O)NCc3cccnc3)sc2c1	0.1
N#Cc1c(NC(=O)CSc2n[nH]c(N)n2)oc(-c2ccccc2)c1-c1ccccc1	i
COc1ccc(N2CCN(CC(O)c3c[nH]c4ccc(OC)cc34)CC2C)cc1 (stereo unspecified)	i

Shown field by field: entries from further up
> Cc1ccc2c(Cl)c(C(=O)NCc3cccnc3)sc2c1
  H5N1 CPE: 0.1

> N#Cc1c(NC(=O)CSc2n[nH]c(N)n2)oc(-c2ccccc2)c1-c1ccccc1
  H5N1 CPE: i

(listing goes on)
SMILES	H5N1 CPE
CCC(=O)N(C)C(c1ccccc1Cl)c1nnnn1-c1c(C)cccc1C (stereo unspecified)	i
CCc1nnc(NC(=O)c2cccc(S(=O)(=O)N(C)c3ccccc3)c2)s1	0.0
Cc1ccc(-c2noc(CCC(=O)Nc3ccccc3N3CCN(C)CC3)n2)cc1	i
Cc1ccccc1C(=O)Nc1ccccc1-n1cccc1	2.4
C=CCNC(=O)c1ccncc1	i
Cc1nnc(SCc2cnc(-c3ccccc3)o2)[nH]c1=O	0.2
CC1CCN(S(=O)(=O)c2ccc(NC(=O)N3c4ccccc4Sc4ccccc43)cc2)CC1	1.4
CCCNC(=O)N1C2CCC1CC(O)(c1cccnc1)C2 (stereo unspecified)	i
COc1ccccc1-n1c(SCC(=O)Nc2ccc(F)cc2)nc2c(c1=O)SCC2	1.5
CCCCNC(=O)c1ccc(N2CCOCC2)c(NS(=O)(=O)c2ccc(OC)cc2)c1	i
COCC(=O)N(c1ccc(C(C)C)cc1)C1C=CS(=O)(=O)C1 (stereo unspecified)	1.0
CCOC(=O)C1C(=O)CC(C)(O)C(C(=O)OCC)C1c1cc(Br)ccc1OC (stereo unspecified)	0.8
Cc1ccc(-c2cnc(SCC(=O)N3CCCc4ccccc43)n2C)cc1	1.6
CC(C)(C)S(=O)(=O)c1nc2ccccc2s1	i
N#CCSC1=Nc2ccccc2C2=NC(CCC(=O)N3CCN(c4ccccc4)CC3)C(=O)N12 (stereo unspecified)	4.0
O=c1[nH]cc(COCc2ccccc2)c(=O)[nH]1	0.9
O=C(Nc1nc(-c2ccc(S(=O)(=O)N3CCCC3)cc2)cs1)c1ccco1	1.0
Cc1nc2ccc(Br)cn2c1NC(C)(C)C	1.3
N#Cc1ccsc1NC(=O)CN1CCCCCC1	i
Cc1cc(NC(=O)COC(=O)c2ccc(NS(=O)(=O)c3ccc(C)c(C)c3)cc2)no1	i

Structures listed so far that have bromine:
SMILES	H5N1 CPE
Cc1cc(Br)ccc1OCC(=O)N(Cc1nc(-c2ccccc2)no1)C(C)C	0.5
CCC(C)c1ccc(O)c(NC(=O)c2cncc(Br)c2)c1 (stereo unspecified)	0.8
CCOC(=O)C1C(=O)CC(C)(O)C(C(=O)OCC)C1c1cc(Br)ccc1OC (stereo unspecified)	0.8
Cc1nc2ccc(Br)cn2c1NC(C)(C)C	1.3

Given comma-delimited: entries from further up.
Structure,H5N1 CPE
COc1ccc(-n2c(Cc3cccn3C)nnc2SCC(=O)Nc2cccc(NC(C)=O)c2)cc1,0.5
NC(=O)C(c1ccc(Sc2ccccc2)nn1)c1ccc(Cl)cc1Cl (stereo unspecified),i

(next part)
SMILES	H5N1 CPE
CCOC(=O)CSc1nc2cc(C(=O)N3CCC(C(N)=O)CC3)ccc2c(=O)n1-c1ccccc1	0.3
Cc1ccc(CCC(=O)Nc2nccs2)o1	i
CC1(C)NC(=O)N(CC(O)COc2ccccc2C(=O)Nc2ccccc2)C1=O (stereo unspecified)	i
COc1ccc(C(=O)NCCc2nnc(SCc3nc4ccccc4c(=O)[nH]3)n2C)cc1	i
Cc1cc(C(=O)CSc2nnc(N)s2)c(C)n1CCc1ccc(Cl)cc1	i
O=C1c2ccccc2C(=O)N1CCCCN(C(=O)c1cccc([N+](=O)[O-])c1)c1ccc(Cl)cc1	0.8
COc1ccc(NC(=O)CN2CCC(C)CC2)cc1	0.8
CCOC(=O)[C@H]1CCC[C@@H](NS(=O)(=O)c2ccc(NC(C)=O)cc2)C1	0.1
Cc1cccc(CS(=O)(=O)Cc2ccc(C(=O)NCCN3CCCCC3C)o2)c1 (stereo unspecified)	0.7
Nc1ccccc1SCC(=O)N1CCc2ccccc21	0.1
O=C(CSc1nc2ccccc2c(=O)n1NC(=O)Cc1ccccc1)NCc1ccccc1	i
Cc1cc(C)c(S(=O)(=O)Nc2ccc(O)cc2)cc1C	i
O=C(NCc1ccc(C(=O)N2CCC3(CC2)OCCO3)cc1)c1ccc2c(c1)OCO2	0.2
Cc1ccccc1C(=O)NC(=S)Nc1ccc(Oc2ccc(Cl)cc2)cc1	i
O=C(O)CCn1c(=O)sc2ccccc21	i
COc1ccccc1N1C(=O)CC(N2CCc3ccccc32)C1=O (stereo unspecified)	i
Cc1nc(=O)c(-c2ccccc2)c(C)n1-c1ccccc1C(=O)O	i
COc1ccc(S(=O)(=O)N[C@@H](Cc2ccccc2)C(=O)N2CC[C@@]3(O)CCCC[C@H]3C2)cc1	i
COc1ccccc1CNC(=O)Cn1cccc1	0.8
O=C(NC(=S)Nc1cccc(Cl)c1N1CCCCC1)c1cccs1	1.0
O=C(c1ccc(Cl)cc1)c1cnc(Nc2ccccc2)s1	i
CC(=O)N(C)C1(c2nnnn2CCOC(=O)Nc2cccc3ccccc23)CCCC1	0.4
Cc1cccc(NC(=S)NNC(=O)c2ccco2)c1	i
O=C(Nc1nc(-c2cc(Cl)sc2Cl)cs1)c1ccccc1	i
NC(=O)C1CCN(C(=O)c2cc(S(=O)(=O)N3CCOCC3)c(Cl)cc2Cl)CC1	i
CCn1c(SCC(=O)Nc2ccc(N3CCOCC3)c(Cl)c2)nnc1-c1ccc(N)cc1	3.7
CCCC(=O)c1ccc(N2CCOCC2)c(F)c1	i
CC(O)(CS(=O)(=O)Cc1ccc(Cl)cc1)C(=O)Nc1cccc(C(F)(F)F)c1 (stereo unspecified)	i
Nn1c(SCC(=O)NCc2ccc3c(c2)OCO3)nnc1C1CC1	0.7
CN(C)c1ncc(C(=O)O)cn1	i
COC(=O)c1nn(-c2ccccc2)c(Sc2ccc(C)cc2)c1/C=N/O	i
CC1(C)C2CCC1(CS(=O)(=O)N1CCCc3ccccc31)C(=O)C2 (stereo unspecified)	0.8
CCc1sc(NC(=O)CN2CCOCC2)nc1-c1ccccc1	i
O=C(Nc1n[nH]c(C2CCCCC2)n1)C1CCCCC1	0.7
CNc1nc2sc3c(c2c(=O)n1C)CC(C)(C)SC3	0.6
CCCCOc1ccc(C(=O)N/C(=C\c2ccc(OC)cc2)C(=O)OCc2ccco2)cc1	i
CCc1c(C)nc2ncnn2c1N1CCC(C(=O)Nc2ccc(C)cc2)CC1	0.6
CCOc1cc2[nH]c(=O)n(CCC(=O)NCCc3ccc(OC)c(OC)c3)c(=O)c2cc1OCC	i
Cc1ccc(S(=O)(=O)c2nc(C(C)(C)C)oc2N2CCOCC2)cc1	i
COc1ncnc2sc(-c3ccccc3)cc12	i
CCCc1cc(C(N)=O)c(NC(C)=O)s1	i
COc1cccc(C2C3=C(CCCC3=O)Nc3nc(-c4cc(OC)c(OC)c(OC)c4)nn32)c1 (stereo unspecified)	1.4
CC(=O)c1cccc(NC(=O)C2CCCN(S(=O)(=O)c3ccccc3)C2)c1 (stereo unspecified)	1.2
O=C(CSc1nnc(SCc2ccc(Cl)cc2)s1)N1CCOCC1	4.2
Oc1ccccc1-c1nnc(-c2ccc(C(F)(F)F)cc2)o1	i
Cc1cc(N2CCOCC2)nc(-c2ccc([N+](=O)[O-])cc2)n1	i
Cc1cc(C)n(-c2ccc(C(=O)NC(C)C)cc2)n1	1.4
Oc1ccc(F)cc1-c1cc(-c2ccc3c(c2)OCCO3)n[nH]1	i
CCOC(=O)c1cnc(SCc2nc(N)nc(Nc3ccccc3)n2)nc1N	i
Clc1ccc(Cn2c(-c3cccnc3Cl)nc3ccccc32)cc1	i

Later entries:
SMILES	H5N1 CPE
Cc1ccc(C(C)C)c(OCC(=O)N2CCOCC2)c1	i
O=C(CSc1nc2ccccc2n1CC(=O)N1CCCC1)Nc1ccc2c(c1)OCO2	i
COc1cc([N+](=O)[O-])ccc1N/C=C/C(=O)c1cccs1	2.0
Cc1c(C(=O)O)sc(=S)n1CCOc1ccccc1	0.5
O=C(CSc1nnc(Cn2c(=O)sc3ccccc32)n1-c1ccccc1)N1CCCCCC1	0.7
Cc1ccc(CN(C(=O)c2ccco2)C(C(=O)NC2CCCC2)c2ccc(N3CCOCC3)cc2)cc1 (stereo unspecified)	i
CC1(C)CC(=O)C2=C(C1)NC(=O)CC2c1cccc(F)c1 (stereo unspecified)	i
CCOC(=O)c1ccc(NC(=O)C2(c3ccccc3)CCCC2)cc1	0.1
CCN(CC)c1nc2ccccc2nc1C(C#N)C(=O)NCCCOC (stereo unspecified)	i
COc1ccc(C(=S)Nc2ccccc2)cc1	0.1
Cc1ccc(N/C=C/C(=O)C(C)(C)C)c(O)c1	i
CC(=O)COc1ncn(-c2ccccc2)n1	0.2
O=C(c1cccnc1)N1C2C=CC(C2)C1(C(F)(F)F)C(F)(F)F (stereo unspecified)	1.4
